High-throughput results: PubChem, several laboratories
PrP UTR inh: inhibition of PrP 5' UTR reporter expression; AID 488862, 2010; 340,000 compounds, 0.35% hits; cell-based PrP 5' UTR mRNA reporter, plate reader; inhibition, % (test concentration not listed);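 active = every replicate at 50% or more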;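 also: 0 = median of the neutral control wells; tested in H4 reporter cells; numbers are from one replicate; inactives centre near -14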
Mtb hypoxia rep: PubChem AID 1159583 | fluorescence inhibition, % (concentration not given with the values) | 300,000 compounds, 0.1% hits | M. tuberculosis hypoxia-regulated fluorescent reporter, fluorescence;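 active = 35 to 45% if threefold the growth effect, above 45% if 1.5-fold the growth effect; inactive = the rest, general growth blockers included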;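 also: wells of about 50 µL received 100 nL stock; 0% = vehicle wells and 100% = reference inhibitor wells; whole bacteria with a GFP reporter of the hypoxia response; strong numbers were not always called active; many hits fall short of the cut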
Autofluor counter: compound fluorescence in toxin protease inhibitor counterscreen; compound autofluorescence counterscreen, microsphere flow cytometry; stronger effect = higher value; fluorescence intensity (concentration not given with the values); 360,000 compounds, 3.1% hits; AID 624483;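 active = at least 3 SD above the mean of all compounds, about 16000 in these data; inconclusive = too few beads counted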;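 also: 100 nL of 1 mM stock went into each well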
ugtP null kill: growth inhibition of ugtP-null S. aureus, primary screen, RN4220 ugtP deletion, OD600. 16 h; some inactives read as strong as hits. growth inhibition, % (test concentration not listed). 330,000 compounds, 0.54% hits. AID 1259309, 2017;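 active = z-score under -3 and OD600 up to 0.15 on both plates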;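 also: plate controls were untreated wells for no effect and antibiotic for full effect; wells of about 80 µL received 100 nL stock; the first replicate is given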
BJeLR lethal: MLPCN primary cell-based screen for lethality selective to Ras in HRASV12 cells; BJeLR (HRASV12) viability, CellTiter-Glo ATP luminescence, 48 h; reference of the scale not given here; inhibition, % (test concentration not listed); 300,000 compounds, 0.17% hits;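 active = replicate mean above 50%; inconclusive = above 50% but judged a plate artefact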;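 also: 50 nL library stock added to about 25 µL; numbers are from one replicate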
Sa RN4220 lethal: growth inhibition of S. aureus RN4220, primary screen, OD600; AID 1259311, 2017; 330,000 compounds, 0.33% hits; inhibition, % (concentration not given with the values); 16 h;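 active = z-score of -3 or lower and OD600 up to 0.18 on both plates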;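 also: plate controls were untreated cells for no effect and reference antibiotic for full effect; stock transfer was 100 nL into about 80 µL; one replicate is shown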
Mtb hypoxia rep growth: also measured in Mtb hypoxia rep; calls as there; growth inhibition, %; measured here: M. tuberculosis growth (absorbance);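 0% = vehicle and 100% = reference antibiotic; read after six days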
* hit, by the source's call; ? = inconclusive; . = not tested or not shown. Compounds as they come (roughly 4% active in at least one column).

SMILES	PrP UTR inh	Mtb hypoxia rep	Mtb hypoxia rep growth	Autofluor counter	ugtP null kill	BJeLR lethal	Sa RN4220 lethal
COc1ccc(CNC(=O)COC(=O)CCCOc2ccc(Cl)cc2Cl)cc1	-20	7	4	2058	1	-22	2.5
COc1ccc2c(c1)NC(c1ccc(N(C)C)cc1)c1cccn1-2 (centres undefined)	-10	-7	-8	.	-3	-2	3.0
CCOc1ccccc1C1C(C#N)=C(N)Oc2cc(C)n(C)c(=O)c21 (centres undefined)	-2	-3	-2	21644*	2	4	1.0
CSc1ncc(CN2CCc3c([nH]c4ccccc34)C2c2cccc(C)n2)cn1 (centres undefined)	-11	-4	6	5152	8	2	2.9
COC(=O)c1ccc(C(c2c(C)n(C)n(-c3ccccc3)c2=O)c2c(C)n(C)n(-c3ccccc3)c2=O)cc1	-13	-7	17	3335	3	-1	1.3
CCCCCCNC(=O)Cc1c(O)c2ccccc2[nH]c1=O	-15	-1	11	3236	-11	4	-7.5
O=C(CN(CCc1ccccc1)S(=O)(=O)c1ccc(Cl)cc1)N/N=C/c1ccc2c(c1)OCO2	4	.	.	10207	.	8	.
O=C(CN(C(=O)CCC(=O)Nc1nccs1)c1ccccc1F)NCc1ccccc1	-12	16	5	4811	5	0	-0.5
Cc1nn(CC(=O)NCCc2ccccc2)c(=O)c2cc3occc3n12	-7	14	1	4604	2	4	2.0
CC(C(=O)Nc1ccc(Cl)cc1Cl)N1CC=C(c2ccccc2)CC1 (centres undefined)	-23	-9	7	2496	34	-8	-5.8
O=C(Nc1cc(Cl)ccc1F)C1=COCCO1	-24	0	7	?	11	8	0.7
CC(C)(CN1CCc2ccccc2C1)NS(=O)(=O)c1ccccc1	-44	17	10	3609	12	4	6.4
O=C(NCc1ccc(F)cc1)C1CCCN(C(=O)Nc2ccccc2)C1 (centres undefined)	-19	8	14	19569*	3	.	2.8
Cc1cc(C)c(S(=O)(=O)c2cccc(Br)c2C)c(=O)[nH]1	3	-10	-1	3635	4	5	4.5
CCOC(=O)C1(Cc2cccc(OC)c2)CCN(Cc2cnc(N)nc2)CC1	-24	3	4	3929	6	4	4.4
CC(=O)Nc1cc(-c2nn3c(C)nnc3s2)ccc1C	-23	.	.	6302	0	-12	1.7
CN(Cc1ccccc1)C(=O)c1cccc(NC(=O)Cc2ccc(NC(=O)C3CCCN(C(=O)C4CCCCC4)C3)cc2)c1 (centres undefined)	-11	-11	3	3926	2	.	2.1
CC1CC(=O)Nc2ccccc2N1C(=O)COc1ccc2cc(Br)ccc2c1 (centres undefined)	8	5	0	3090	9	.	9.4
C[C@H](NC(=O)COc1ccccc1)C(=O)OCC(=O)c1cc2ccccc2o1	-28	-3	12	4214	1	.	3.3
COc1cc(C=Nn2cc(-c3ccccc3)[nH]c2=S)cc(OC)c1O	.	0	4	.	1	.	4.0
O=C(COc1ccccc1O)NNc1ccccc1	-16	5	9	3031	7	-12	1.5
O=C(CN1CCOc2ccccc21)N1CCN(c2cccc(Cl)c2)CC1	-19	.	.	5489	3	-11	7.5
CC1C(C#N)=C(N)OC2=C1C(=O)CC(c1ccccc1)C2 (centres undefined)	-29	8	4	4075	-63	17	18
Cc1cccc(NC(=O)c2sc(NC(=O)COc3ccccc3)c(C#N)c2C)c1C	-2	.	.	2381	4	2	7.4
CCOC(=O)c1cnc(N)nc1-c1ccccc1	-20	6	6	3958	-2	.	-0.5
Cc1oc(C(=O)O)cc1COc1ccc2c3c(c(=O)oc2c1C)CCC3	-3	4	3	16185*	6	-11	6.1
CCCCN(CC)Cc1ccc(CNC(=S)Nc2ccc(C)cc2Cl)o1	10	10	2	5155	3	6	2.2
O=C(CN1C(=O)CCSc2ccc(S(=O)(=O)N3CCCC3)cc21)Nc1ccccc1Cl	7	-5	-7	6101	-3	-3	-0.6
Cc1ccc(NCCC(=O)c2cccs2)cc1	-96	17	7	4408	1	-3	13
C/C(=N/NC(=O)NC12CC3CC(CC(C3)C1)C2)c1ccccc1	-11	.	.	4208	.	-6	.
CCc1ccc2[nH]c(=O)c(CN(CCN(CC)CC)C(=S)NCc3ccco3)cc2c1	-18	22	10	5395	11	-4	4.9
Oc1oc(-c2ccco2)nc1C=Nc1ccccc1	-14	-1	-6	6945	-6	0	2.7
COCCN(CCOC)S(=O)(=O)c1ccc(C(=O)Nc2nnc(CSC)o2)cc1	-9	8	6	2583	13	3	2.1
COc1cc(C(=O)N2CCN(CC(O)COc3ccccc3)CC2)cc(OC)c1OC (centres undefined)	-22	3	-1	3802	3	10	3.7
Cc1cc(NC(=O)Nc2ccc(OCc3ccccc3)cc2)n(C)n1	-22	14	5	4025	5	3	3.6
C[C@]12C=CC(=O)C=C1CCC1C2C(=O)C[C@@]2(C)C1CC[C@]2(O)C(=O)CO (some centres undefined)	.	3	7	.	6	.	2.6
C/C(=N\Nc1cc(N2CCOCC2)ncn1)c1cccc([N+](=O)[O-])c1	-21	.	.	2468	.	6	.
CCCOc1ccc(C(=O)Nc2ccc(S(=O)(=O)Nc3onc(C)c3C)cc2)cc1	-4	19	18	3925	3	-8	3.6
CCC1(C(=O)NC(=Nc2ccccc2)Nc2ccccc2)CCOC1=O (centres undefined)	-13	-2	12	4036	-2	.	-0.7
O=C1CCCCC1Nc1ccc2ccccc2c1 (centres undefined)	-35	17	8	2995	1	.	-4.7
COc1ccc(C(=O)Nc2cccc(C)c2)cc1	-45	9	11	9553	0	9	3.1
NC(=O)[C@@H]1CCOc2c(I)cc([N+](=O)[O-])cc2C(=O)N[C@@H](CO)C(=O)NCC(=O)N1	-19	.	.	3126	.	1	.
CCOC(=O)c1sc(NNC(=O)c2ccc(F)cc2)nc1C	5	-12	-9	4356	7	-3	8.3
CCOc1cc(-c2nc(-c3ccc(C)nc3OC)no2)cc(OCC)c1OCC	-25	12	-4	5845	9	11	4.4
CC(=O)Oc1ccc(C(=O)Nc2nnc(C)s2)cc1	-37	-1	3	5317	-2	4	-0.8
O=C(CC(c1ccccc1)c1ccccc1)NCc1cccnc1	5	13	20	9818	4	-4	0.0
CCc1ccc2[nH]c(=O)c(CN(Cc3ccccc3)Cc3nnnn3Cc3ccco3)cc2c1	-14	10	1	3374	-28	-6	-2.7
O=C(NCc1ccccc1)c1ccccc1CO	-2	0	4	2114	-3	0	3.9
Cc1cccc(/C=N/n2c(-c3ccncc3)n[nH]c2=S)c1	1	.	.	2048	.	18	.
CCn1cc(C(=O)N[C@H](C(=O)NCCCn2ccnc2)C(C)C)c(=O)c2cc3c(cc21)OCO3	-12	-2	-6	4564	12	-8	5.8
The list continues:
SMILES	PrP UTR inh	Mtb hypoxia rep	Mtb hypoxia rep growth	Autofluor counter	ugtP null kill	BJeLR lethal	Sa RN4220 lethal
O=C(CON=Cc1cccc([N+](=O)[O-])c1)NC1CCCCCC1	.	14	7	.	1	.	10.0
COc1cc(CC(=O)OCC(=O)Nc2sccc2C(N)=O)cc(OC)c1OC	-20	10	8	4207	-5	4	4.2
CC(C)(C)NC(=O)NC(=O)COC(=O)COc1ccc2c(c1)CCC2	-15	12	5	10365	-2	2	11
COc1ccc(OC)c(NC(=O)C2C3C=CC(C3)C2C(=O)NCc2ccccn2)c1 (centres undefined)	-11	-2	13	21062*	-8	0	6.3
COc1cccc(CN2C(=O)C(C)Oc3ccccc32)c1 (centres undefined)	-19	0	4	4045	12	-10	-0.7
O=C(Cn1c(=O)cnc2ccccc21)Nc1cccc(S(=O)(=O)N2CCCCC2)c1	-19	9	4	5445	0	.	3.7
Cn1c(CN2CCOCC2)nnc1SCC(=O)NCCc1ccccc1	-18	7	-3	9219	4	-18	2.3
O=C(COc1ccccc1Cl)Nc1ccc(NC(=O)c2ccco2)cc1	-28	7	0	5828	-14	-11	6.0
COc1ccc(-n2c(-c3ccc(Br)cc3)n[nH]c2=S)cc1	-19	-2	18	3621	6	2	0.6
Cc1nn(-c2cc(N3CCCCC3)ccc2[N+](=O)[O-])c(=O)c2ccccc12	0	7	9	21077*	-5	-5	5.1
CCCCn1c(N)c(N(CC)C(=O)c2cccc(OCc3ccccc3)c2)c(=O)[nH]c1=O	-27	6	5	9064	-4	.	-2.0
CCCOc1cccc(/C=N/NC(=O)c2csc(C)c2C)c1	2	.	.	2732	.	-12	.
CC(=O)C1=C(O)C(=O)N(c2ccc(O)cc2)C1c1ccccc1F (centres undefined)	-25	3	4	3829	3	5	-0.1
COc1ccc(-n2cnc3cc(C(=O)NCCN4CCOCC4)ccc32)cc1	-13	16	5	2588	8	1	0.4
CS(=O)(=O)Nc1ccccc1C(=O)NCc1ccco1	-19	.	.	3828	-5	-5	3.0
CCOc1ccc2cc(S(=O)(=O)n3ccnc3C)ccc2c1	0	.	.	3575	.	3	.
Cc1cccc(COc2ccccc2C(=O)NC2CCC(O)CC2)c1 (centres undefined)	-20	12	-1	5075	-3	0	3.9
COC(=O)c1ccc(C(=O)OC)c(NC(=O)COC(=O)CC2CC3CCC2C3)c1 (centres undefined)	-15	14	9	4015	-5	-3	-6.7
OC1c2cc(Cl)ccc2-c2c(Cl)cc(Cl)cc21 (centres undefined)	-24	14	10	4443	5	.	2.4
CCN(CC)S(=O)(=O)c1cc(NC(=O)c2ccc3c(c2)NC(=O)C(C)S3)ccc1C (centres undefined)	-3	1	5	3564	-3	.	5.5
O=c1[nH]c(CN2CCN(S(=O)(=O)c3cccs3)CC2)nc2c(Br)cc(Br)cc12	-3	1	-5	3988	-1	2	-9.5
O=C(Nc1ccc(F)cc1)c1sccc1SCc1cccc(C(F)(F)F)c1	-18	1	12	26797*	-25	1	-0.6
CCOc1ccc(C(=O)NC(C(=O)NCc2cccnc2)C(C)C)cc1 (centres undefined)	-7	0	-1	5188	7	0	1.4
Cc1ccc(CNCCCSc2ncccn2)cc1	-36	1	-3	4070	3	-4	1.9
COc1ccc(S(=O)(=O)N2CCCC(C(=O)O)C2)cc1Cl (centres undefined)	-24	.	.	4361	-3	8	0.8
CCCC(C)C(=O)NCc1ccncc1 (centres undefined)	-18	6	-1	2183	4	-2	2.9
CC(=NNC(=O)c1ccn(C)n1)c1cccc(NC(=O)c2ccncc2)c1	.	-2	6	.	2	.	0.0
Cc1nc(NCC(c2ccccc2)N(C)C)c2c(C)c(C)sc2n1 (centres undefined)	-9	14	1	4042	0	-3	3.6
CC(C)(C)C(=O)Cn1ncc(N2CCOCC2)c(Br)c1=O	-16	1	3	4311	-7	-10	3.1
C#CCOc1ccc(/C=N/O)cc1Cl	-25	.	.	2045	.	0	.
CCCCn1nnnc1SCC(=O)NNC(=O)C1CCCCC1	-24	-9	-9	9026	8	-8	1.6
CN1CCCC(OC(=O)c2cc(Cl)ccc2Cl)C1 (centres undefined)	-6	5	8	2829	5	6	0.8
COc1ccc(C(=O)NCC(=O)N/N=C/c2ccc([N+](=O)[O-])s2)cc1OC	-19	.	.	2019	.	0	.
COCCOc1cc(NCc2ccccc2)c2ncn(C(C)C)c2c1	0	-6	5	2981	-11	.	14

Compounds listed so far with a thiophene ring, fused or not, in the order listed:
SMILES	PrP UTR inh	Mtb hypoxia rep	Mtb hypoxia rep growth	Autofluor counter	ugtP null kill	BJeLR lethal	Sa RN4220 lethal
Cc1cccc(NC(=O)c2sc(NC(=O)COc3ccccc3)c(C#N)c2C)c1C	-2	.	.	2381	4	2	7.4
Cc1ccc(NCCC(=O)c2cccs2)cc1	-96	17	7	4408	1	-3	13
COc1cc(CC(=O)OCC(=O)Nc2sccc2C(N)=O)cc(OC)c1OC	-20	10	8	4207	-5	4	4.2
CCCOc1cccc(/C=N/NC(=O)c2csc(C)c2C)c1	2	.	.	2732	.	-12	.
O=c1[nH]c(CN2CCN(S(=O)(=O)c3cccs3)CC2)nc2c(Br)cc(Br)cc12	-3	1	-5	3988	-1	2	-9.5
O=C(Nc1ccc(F)cc1)c1sccc1SCc1cccc(C(F)(F)F)c1	-18	1	12	26797*	-25	1	-0.6
Cc1nc(NCC(c2ccccc2)N(C)C)c2c(C)c(C)sc2n1 (centres undefined)	-9	14	1	4042	0	-3	3.6
COc1ccc(C(=O)NCC(=O)N/N=C/c2ccc([N+](=O)[O-])s2)cc1OC	-19	.	.	2019	.	0	.
